Screens deposited in PubChem BioAssay by several laboratories.
Hsc70 ATP site: Hsc70 inhibitors, probe displacement, primary screen, biochemical, fluorescence polarization (AID 568). Heat shock cognate 71 kDa protein (Homo sapiens). Hsc70 fluorescence polarization, probe displacement; higher % means a stronger effect; strong numbers were not always called active. one-dose displacement, % at 20 µM; IC50 in µM for titrated hits. 83,000 tested, under 10 active;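 active = displacement above 50% without optical interference and an IC50 on retest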;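 also: ATPase domain with a fluorescein-tagged ATP probe; 0% = vehicle and 100% = excess ADP; read after one hour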
WNV protease inh: inhibitors of WNV NS2B-NS3 protease, primary screen, biochemical, fluorogenic substrate | fluorogenic substrate Ex360/Em465; stronger effect = lower value | 65,000 compounds, 0.18% hits | z-score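 (tested at a level between 10 and 100 µM)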;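 active = z-score at -3 or under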;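 also: score is relative to mean and spread of the compound wells of a plate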
Target sequence (P06935 1371-1501 limits assumed): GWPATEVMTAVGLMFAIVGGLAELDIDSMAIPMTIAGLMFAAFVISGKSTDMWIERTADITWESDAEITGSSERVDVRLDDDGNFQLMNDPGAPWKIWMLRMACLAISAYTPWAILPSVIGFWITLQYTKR
Target sequence (P06935 1502-1679 limits assumed): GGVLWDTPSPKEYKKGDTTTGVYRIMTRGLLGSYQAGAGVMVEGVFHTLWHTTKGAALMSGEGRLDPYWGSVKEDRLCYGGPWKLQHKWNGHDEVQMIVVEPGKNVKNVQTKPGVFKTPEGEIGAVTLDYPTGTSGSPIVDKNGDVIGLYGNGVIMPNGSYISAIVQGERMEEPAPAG
MT1-MMP promoter: inhibitors of MT1-MMP promoter transcription, cell-based, luciferase reporter, luminescence (AID 618); 87,000 compounds, 0.62% hits; calls from a first round at 10 µM; hits with a dose series show EC50 in µM; MT1-MMP promoter luciferase reporter cells, luminescence;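 active = over half of the reporter light lost at 10 µM or EC50 under 50 µM; inactive = the rest and hits that failed the dose series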;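 also: actives suppress MT1-MMP promoter-driven transcription so potencies describe inhibitors; HT1080 fibrosarcoma cells; overnight exposure; toxic or luciferase-blocking compounds were not removed from the actives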
An asterisk follows results filed as active; i = inactive; nt = not tested or not shown; + = active, no number.

A first look (2 entries):
Results follow in this order: Hsc70 ATP site, WNV protease inh, MT1-MMP promoter
> CCCC1CCC(c2nc(-c3cccnc3)no2)CC1 (stereo unspecified)
  8.4%, 0.54, i
> CCOc1cc(N2CCOCC2)c(OCC)cc1NC(=O)c1cc(-c2ccco2)nc2ccccc12
  -6.2%, -0.36, i

This part in full (from the top)
Results follow in this order: Hsc70 ATP site, WNV protease inh, MT1-MMP promoter
> CCCC1CCC(c2nc(-c3cccnc3)no2)CC1 (stereo unspecified)
  8.4%, 0.54, i
> CCOc1cc(N2CCOCC2)c(OCC)cc1NC(=O)c1cc(-c2ccco2)nc2ccccc12
  -6.2%, -0.36, i
> CC(C)n1c(/N=C/c2c[nH]c3ccccc23)nc2ccccc21
  1.6%, nt, i
> COc1ccc(NC2=NCC(=O)N2c2ccccc2)c(OC)c1
  6.8%, 0.05, i
> COc1ccccc1CN=Cc1[nH]c2ccc(Br)c(Cl)c2c1O
  -18%, nt, i
> Cc1cc(NC(=O)c2cc(C3CC3)on2)no1
  2.1%, 0.62, i
> O=C(CN(Cc1ccccc1)C(=O)c1cc2c(s1)CCC2)NCc1cccs1
  -0.2%, nt, i
> O=C(CCc1nc(-c2ccccc2)no1)NCCc1ccccc1
  -7.8%, nt, i
> CCN(CC)CCn1nc(C)nc1-c1ccccc1O
  -0.3%, 0.22, i
> CCOC(=O)c1cccc(NC(=O)C(C)N2C(=O)c3ccccc3C2=O)c1 (stereo unspecified)
  -6.1%, -0.29, i
> Cn1c(SCc2ccon2)nc2ccccc2c1=O
  2.2%, 1.5, i
> COc1ccc(CCNC(=O)C(=O)NCC2CCCO2)cc1 (stereo unspecified)
  2.7%, nt, i
> CCN1CC2=C(OC(N)=C(C#N)C2c2ccccc2)/C(=C\c2ccccc2)C1 (stereo unspecified)
  30%, -0.13, i
> O=S(=O)(/N=C(\Sc1ccccc1)c1ccccc1)c1ccc(Cl)cc1
  -1.3%, nt, i
> COc1ccc(/C=N/n2c(N)nc3ccccc32)cc1OC
  -5.9%, -0.09, i

Some entries already given, showing only Hsc70 ATP site:
molecule,Hsc70 ATP site
COc1ccccc1CN=Cc1[nH]c2ccc(Br)c(Cl)c2c1O,-18%
Cc1cc(NC(=O)c2cc(C3CC3)on2)no1,2.1%
O=C(CN(Cc1ccccc1)C(=O)c1cc2c(s1)CCC2)NCc1cccs1,-0.2%
O=C(CCc1nc(-c2ccccc2)no1)NCCc1ccccc1,-7.8%
CCN(CC)CCn1nc(C)nc1-c1ccccc1O,-0.3%
CCOC(=O)c1cccc(NC(=O)C(C)N2C(=O)c3ccccc3C2=O)c1 (stereo unspecified),-6.1%

More compounds
Results follow in this order: Hsc70 ATP site, WNV protease inh, MT1-MMP promoter
> CCn1c(SCC(=O)Nc2ccccc2C(=O)OC)nc2c1c(=O)n(C)c(=O)n2C
  0.0%, -0.55, i
> C=CS(=O)(=O)c1ccc(Oc2ccc(S(=O)(=O)C=C)cc2)cc1
  -7.9%, -1.1, +
> COc1cc(NC(=O)CSc2nc(C)cs2)cc(OC)c1
  -4.6%, -0.55, i
> CCCc1nn(-c2ccccc2)c2c1C(c1cccs1)C(C#N)=C(N)O2 (stereo unspecified)
  2.5%, nt, i
> CCn1c2ccccc2c2cc(/C=N/n3cn[nH]c3=S)ccc21
  -6.1%, nt, i
> CCOC(=O)N1CCC(NC(=O)Cn2cccc2C(=O)c2ccccc2C)CC1
  -6.0%, -0.33, i
> COCCn1cc(C(=S)N2CCOCC2)c2ccccc21
  1.3%, nt, i
> O=C(CCCOc1ccccc1)Nc1ccncc1
  0.7%, 0.28, i
> O=C(NCCc1ccncc1)C(F)(F)F
  -8.4%, -0.05, i
> O=C(CCS(=O)(=O)c1cccc2nonc12)N1CCN(c2ccc(F)cc2)CC1
  -3.3%, -0.73, i
> Cc1cc(C)nc(N/N=C/c2ccco2)n1
  1.3%, nt, i
> CC1CCCN(Cc2nc3c(c(=O)n(C)c(=O)n3C)n2CCc2ccccc2)C1 (stereo unspecified)
  3.2%, 0.21, i
> COc1ccc(NC(=O)C2CCCCN2S(=O)(=O)c2ccc(F)cc2)c(OC)c1 (stereo unspecified)
  -2.3%, -0.71, i
> COc1cc(CC(=O)OCC(=O)Nc2ncc(Cl)cc2Cl)cc(OC)c1OC
  1.8%, -0.8, i
> O=C(NCc1ccco1)c1ccc(NC(=O)C2COc3ccccc3O2)cc1 (stereo unspecified)
  9.1%, -0.15, i
> CC(=O)c1cccc(NC(=O)C2C3C=CC(C4CC34)C2C(=O)O)c1 (stereo unspecified)
  -3.4%, 2.4, i
> Cc1noc(NS(=O)(=O)c2ccc(NC(=O)CSc3nc4c(cc3C#N)CCCCC4)cc2)c1C
  -7.4%, nt, i
> c1ccc(CCn2nnnc2CN2CCN(C3CCCC3)CC2)cc1
  -0.2%, -0.44, i
> CCOc1ccc(OCC)c(NC(=O)C2CCN(c3nn4c(=O)cc(C)nc4s3)CC2)c1
  1.0%, -0.7, i
> COc1ccc(-c2oc3ncn4nc(Cc5ccccc5)nc4c3c2-c2ccc(OC)cc2)cc1
  -3.9%, 0.93, i
> CCOC(=O)Cc1csc(/C(=N/O)C(N)=O)n1
  -1.5%, -0.68, i
> Cc1c(C(=O)NCC2CCCO2)sc2nc(-c3ccc(F)cc3)cn12 (stereo unspecified)
  0.0%, -0.45, i
> O=C(Nc1nc(-c2cccs2)cs1)c1ccc(S(=O)(=O)N2CCCCC2)cc1
  -1.0%, -1.5, i
> COc1ccc(CCNC(=O)CSc2nc(O)c(CCC(C)C)c(=O)[nH]2)cc1OC
  1.3%, nt, i
> C=CCNC(=O)C(=O)NN=C1CCN(C)CC1
  4.6%, nt, i
> COc1ccc(OC)c(NS(=O)(=O)c2ccc(Cl)s2)c1
  -5.6%, -0.19, i
> O=C(CCOc1ccccc1)NCC(c1ccco1)N1CCCCC1 (stereo unspecified)
  -2.1%, 1.3, i
> O=C(NCCc1ccc(O)cc1)c1ccc(Cl)cc1
  6.4%, nt, i
> O=c1c2ccccc2nc(-c2ccc(Cl)cc2Cl)n1CCCn1ccnc1
  -2.1%, nt, i
> COc1ccc(C)cc1N(CC(=O)NC1CCCC1)C(=O)CCC(=O)Nc1cc(C)on1
  2.2%, 1.7, i
> CCCCc1ccc(NC(=O)C2CCN(S(C)(=O)=O)CC2)cc1
  6.1%, -0.2, i
> CCCCn1c(=O)n(CC(O)c2ccccc2)c(=O)c2c1ncn2C1CCCC1 (stereo unspecified)
  -2.6%, 0.24, i
> O=C(NC1CCCC1)c1ccc(CS(=O)(=O)c2ccc(Br)cc2)o1
  4.7%, -1.6, i
> c1ccc2c(c1)CCN(c1ncnc3c1[nH]c1ccccc13)C2
  -5.0%, -0.43, i
> CC(C)Cn1c(SC(C)C(=O)Nc2ccc3c(c2)OCCO3)nc2ccccc2c1=O (stereo unspecified)
  -1.6%, -1.2, i
> CC(C)c1nc(-c2ccccn2)no1
  -0.9%, -0.99, i
> CCOc1ccc(N(CC(=O)O)S(=O)(=O)c2cccnc2)cc1
  2.3%, 0.38, i
> CC(C)(C)c1ccc(C(=O)NNC(=O)Cc2cccc3ccccc23)cc1
  0.6%, nt, i
> CCN(C(=O)c1cc(Cl)ccc1OC)c1ccccc1C
  2.4%, nt, i
> Oc1cnc2ccccc2c1CN1CCOCC1
  0.0%, -1.2, i
> N#Cc1cc2ccccc2nc1SCc1ccccn1
  1.9%, -0.42, i
> O=C(CSc1nnc(NC(=O)c2ccco2)s1)NC1CCCC1
  0.1%, -0.99, i
> CCc1ccccc1NC(=O)N1C2CCCC1CC(NC(=O)C(C)(C)C)C2 (stereo unspecified)
  1.2%, 0.95, i
> COCCCn1[nH]c2c3c(ccc2c1=O)C(=O)c1ccccc1C3=O
  1.5%, nt, i
> COc1ccc(-c2cc(-c3c(O)c(OC)c4occc4c3OC)[nH]n2)cc1
  -1.6%, nt, i
> c1cncc(-c2noc(-c3cccc4ccccc34)n2)c1
  -12%, nt, i
> CCc1nc(C)ccc1OCC(=O)N(CC)CC
  2.3%, nt, i
> COc1cccc(C(=O)Cn2c(=N)n(C)c3ccccc32)c1
  -1.0%, 0.97, +
> COc1cccc(S(=O)(=O)Nc2ccc(C(=O)NCc3ccco3)cc2)c1
  5.7%, 0.01, i
> CC(=O)Nc1ccc(NC(=O)C2CC(=O)N(c3cccc(C)c3C)C2)cc1 (stereo unspecified)
  -0.9%, -0.61, i
> CCc1c(C)nc2ncnn2c1NCCc1ccccc1
  -4.2%, nt, i
> CN(C)S(=O)(=O)c1ccc(S(=O)(=O)Nc2ccc3c(c2)oc2ccccc23)cc1
  0.9%, 0.84, i
> CCOCCNC(=O)c1ccccc1C(=O)NCCOCC
  2.8%, 0.48, i
> Cc1cccc(NC(=O)c2cnc3ccccn3c2=O)c1
  -2.8%, -1.2, i
> CCCc1c(C)c2cccc(C)c2[nH]c1=O
  -2.6%, 0.76, i
> c1ccc(CCn2c(C3CC3)nc3ccccc32)cc1
  1.4%, nt, i
> Nc1cc2c([N+](=O)[O-])cccc2o1
  -7.8%, nt, i
> Cc1ccc(C2Nc3ccccc3-c3nc4ccccc4n32)o1 (stereo unspecified)
  -6.9%, 0.9, i
> C=CCSc1nnc2n(CCc3ccccc3)c(=O)c3c4c(sc3n12)COC(C)(C)C4
  4.0%, -0.75, i
> COc1ccc2c(c1OC)C(=O)OC2Nn1cncn1 (stereo unspecified)
  -4.6%, -0.08, i

Remaining list, next part
Results follow in this order: Hsc70 ATP site, WNV protease inh, MT1-MMP promoter
> CC(=O)Nc1ccc2ccc3cccc4ccc1c2c34
  1.6%, nt, i
> COc1ccc(-c2nc(N3CCCC3)nc3nn4c(C)cc(C)nc4c23)cc1
  -1.7%, -0.09, i
> COc1ccccc1-c1noc(-c2ccccc2)n1
  4.9%, -0.86, i
> NC(=O)C1(N2CCCCC2)CCN(C(=O)CSc2nc3ccccc3s2)CC1
  -0.2%, 0.98, i
> CCN(CC)S(=O)(=O)c1ccc(/C(O)=C2/C(=O)C(=O)N(CCOC)C2c2ccccc2)cc1 (stereo unspecified)
  -4.2%, 0.36, i
> CCOC(=O)N1CCN(c2c(NCCCN(CC)Cc3ccccc3)c(=O)c2=O)CC1
  6.8%, -0.41, i
> CCc1noc(C)c1C(=O)N1CCCC1
  1.2%, -1.1, i
> CCCCCc1nnc(NC(=O)Cc2cccs2)s1
  -4.0%, -1.4, i
> CCCN1Cc2cccc(C(=O)NCc3ccccc3)c2C1=O
  -4.9%, 0.79, i
> COc1c2occc2c(OC)c2c(=O)cc(C)oc12
  4.9%, -0.41, i
> Cc1cccc(C)c1OCCOCCN1CCN(C)CC1
  8.6%, -0.94, i
> O=C(CCCOc1ccccc1)Nc1nnc(C2CCCO2)s1 (stereo unspecified)
  7.5%, -1.5, i
> Cc1ccc(N(CC(=O)NCc2ccncc2)S(C)(=O)=O)cc1
  3.3%, nt, i
> CN(Cc1ccccc1)C(=O)c1cc(-c2ccc(Br)cc2)on1
  -4.0%, 0.4, i
> c1ccc(Cn2nnc3c(N4CCN(Cc5ccc6c(c5)OCO6)CC4)ncnc32)cc1
  -2.1%, -0.81, i
> Cc1ccc(NS(=O)(=O)c2cccc(C(=O)N3CCOCC3)c2)cc1
  -2.7%, 1.3, i
> NCc1ccc(S(N)(=O)=O)cc1
  0.1%, -0.22, i
> CCc1cc2c(=O)c(-c3nc4ccccc4n3C)c(C)oc2c(CN2CCN(CCO)CC2)c1O
  -2.3%, -0.23, i
> CCCCOc1c(Cl)cc(CNC(C)(C)CO)cc1OCC
  2.7%, 0.56, i
> Cc1cccc(-n2c(Cc3cc(=O)[nH]c(=O)[nH]3)nnc2SCC(=O)NCc2ccco2)c1
  5.6%, -1, i
> CC(=O)c1ccc(NC(=O)N[C@@H](CC(C)C)C(=O)O)cc1
  3.6%, -0.91, i
> O=C(c1cc2ccccc2oc1=O)N1CCN(c2ccccn2)CC1
  5.7%, -0.38, i
> C=CCn1c(=S)[nH]c2nc3c(cc2c1=O)CCCC3
  -1.1%, 0.11, i
> O=C(CCc1ccc(S(=O)(=O)NCCc2ccccc2)cc1)N1CCN(Cc2ccc3c(c2)OCO3)CC1
  2.4%, nt, i
> O=C(NCCSc1c[nH]c2ccccc12)c1ccc(Br)o1
  0.5%, -0.56, i
> Cc1ccc(OCc2nn3c(-c4n[nH]c5c4CCC5)nnc3s2)cc1
  2.1%, 1.1, i
> Cc1ccc(S(=O)(=O)N2CCC(C(=O)N3CCC(C(=O)NCC4CCCO4)CC3)CC2)cc1 (stereo unspecified)
  2.2%, -0.65, i
> CCc1ccc(CCC(=O)Nc2nc(CC(C)=O)ns2)o1
  4.9%, 0.23, i
> CC(=O)Nc1cccc(NC(=O)CCn2c(=O)sc3ccccc32)c1
  2.6%, 2.1, i
> Nc1c(C(=O)NCCN2CCOCC2)c2nc3ccccc3nc2n1-c1ccccc1
  -2.9%, 2.6, i
> O=S(=O)(NCCc1ccccc1)c1ccc(S(=O)(=O)N2CCCCC2)cc1
  1.6%, 0.65, i
